Assay outcomes (PubChem)
DUX4 inh: DUX4-mediated transcription inhibition; 293T-iDUX4 ZSCAN4-Gaussia luciferase reporter, 24 h; active compounds read low; activity change, negative = inhibition, % (concentration not given with the values); 0.8% of 37,000 active;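 active = -10% or lower and over 25 points stronger than a control reporter; inconclusive = -10% or lower with a smaller gap; inactive = above -10%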;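 note: 0% = median of neutral control wells and -100% = median of positive control wells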
DUX4 inh difference: recorded beside DUX4 inh, whose call it bears; Gaussia minus Italica difference, %; measured here: selective DUX4 reporter inhibition;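 worked out from the two reporters; negative = selective loss of the DUX4 reporter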
DUX4 inh control: further read-out of DUX4 inh, marked with its call; activity change, negative = inhibition, %; measured here: Italica tet-on control reporter;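 0 = neutral control and -100 = positive control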
Active calls of the source: *; ? = inconclusive; / = not tested or not shown; & = joins results of further samples. These rows are one share of the data (hit frequency here may not be typical).

Fields: DUX4 inh, DUX4 inh difference, DUX4 inh control
CCC(=O)N1CC2(C1)[C@H](c1ccc(-c3ccc(F)cc3)cc1)[C@H](CO)N2S(C)(=O)=O
→ 9.9, 18.2, -8.3
COc1cccc(CNC(=O)C[C@H]2CC[C@H]3[C@@H](COc4ccc(NS(=O)(=O)c5ccccc5F)cc4C(=O)N3C)O2)c1
→ 3.4, -1.6, 5.1
COc1ccc(NC(=O)N2CC(=O)N3[C@H](CO)[C@H](c4ccc(/C=C/c5ccccc5)cc4)[C@@H]3C2)cc1
→ ?, /, /
COc1ccc2c3c([nH]c2c1)[C@@H](CO)N(Cc1ccccc1F)CC31CN(CC2CC2)C1
→ ?, /, /
O=C(c1cccc(F)c1)N1CC2(C1)[C@@H](c1ccccc1)[C@@H](CO)N2C(=O)C1CCCC1
→ -8.2, 4.9, -13.1
C[C@@H](NC(=O)C[C@H]1CC[C@@H]2[C@H](COC[C@H](O)CN2C(=O)Nc2cccc(Cl)c2)O1)c1ccccc1
→ -4.3, -7.2, 2.8
C[C@@H]1CN([C@@H](C)CO)C(=O)c2cc(-c3cccc(C#N)c3)cnc2O[C@H]1CN(C)Cc1ccc(F)cc1
→ -0.6, -2.2, 1.6
CC[C@H]1CC=CC[C@H](C)Oc2ccccc2C(=O)N(C)[C@H](C(C)C)C(=O)N1 (mixture of isomers)
→ 1.1, -2.0, 3.1
O=C(Nc1ccc2c(c1)[C@H]1C[C@@H](CC(=O)N3CCc4ccccc4C3)O[C@H](CO)[C@H]1O2)c1cccnc1
→ -3.3, 4.0, -7.3
COc1ccc(-c2ccc([C@H]3[C@@H](C#N)N(C(=O)NC(C)C)[C@H]3CO)cc2)cc1
→ 0.6, -0.1, 0.7

Single entries from the results shown:
C[C@@H](NC(=O)C[C@H]1CC[C@@H]2[C@H](COC[C@H](O)CN2C(=O)Nc2cccc(Cl)c2)O1)c1ccccc1 @ DUX4 inh control = 2.8
O=C(c1cccc(F)c1)N1CC2(C1)[C@@H](c1ccccc1)[C@@H](CO)N2C(=O)C1CCCC1 @ DUX4 inh = -8.2

Later entries:
Fields: DUX4 inh, DUX4 inh difference, DUX4 inh control
CCC(=O)N1C[C@@H]2[C@H](c3ccccc31)[C@@H](CO)N2C(=O)CC1CC1
→ -2.3, 3.3, -5.6
CC(=O)Nc1ccc2c(c1)C(=O)N(C)[C@@H]1CC[C@H](CC(=O)NC3CCCCC3)O[C@H]1CO2
→ 4.1, 1.2, 3.0
O=C(C[C@H]1CC[C@@H]2[C@H](COC[C@H](O)CN2C(=O)c2ccccn2)O1)NC1CCC1
→ 4.0, -0.7, 4.7
Cn1cnc(S(=O)(=O)N2C[C@H](O)COC[C@@H]3O[C@@H](CC(=O)N4CCN(c5ccccc5)CC4)CC[C@H]32)c1
→ 2.4, -1.0, 3.4
CCC(=O)N1C[C@H](O)COC[C@@H]2O[C@H](CC(=O)NCc3ccccc3Cl)CC[C@H]21
→ 7.3, 12.7, -5.4
COc1cccc(S(=O)(=O)N2C[C@H](O)COC[C@H]3O[C@@H](CC(=O)N4CCN(C)CC4)CC[C@@H]32)c1
→ 13.7, 9.9, 3.8
COc1ccc(NC(=O)N(C)C[C@H]2OCCCC[C@@H](C)Oc3ccc(NC(=O)c4ccncc4)cc3C(=O)N([C@@H](C)CO)C[C@H]2C)cc1
→ 0.7, 6.3, -5.6
C[C@@H](NC(=O)[C@@H]1[C@@H](CO)[C@@H]2Cn3c(ccc(-c4ccncc4)c3=O)[C@@H]2N1C)c1ccccc1
→ 5.5, 8.7, -3.2
COc1cc(CN2CC3(CCN(C(=O)c4cccnc4)CC3)c3c([nH]c4cc(OC)ccc34)[C@@H]2CO)cc(OC)c1
→ ?, /, /
CNC[C@H]1OCCCC[C@@H](C)Oc2ccc(NS(=O)(=O)c3cccs3)cc2C(=O)N([C@@H](C)CO)C[C@H]1C
→ 2.7, 2.5, 0.2
CCN1[C@H](C(=O)NC2Cc3ccccc3C2)[C@@H](CO)[C@@H]2Cn3c(ccc(C4=CCCC4)c3=O)[C@@H]21
→ ?, /, /
O=C(c1ccccc1F)N1C[C@H]2[C@@H](c3ccccc31)[C@@H](CO)N2C(=O)Nc1ccccc1
→ -2.6, -4.0, 1.5
O=C(C[C@H]1CC[C@@H]2[C@H](COC[C@H](O)CN2Cc2cc(F)ccc2F)O1)NCc1ccc(Oc2ccccc2)cc1
→ ?, /, /
C[C@H](CO)N1C[C@H](C)[C@H](CN(C)Cc2ccc(C(=O)Nc3ccccc3N)cc2)Oc2ccc(NC(=O)C3CCCCC3)cc2CC1=O
→ 1.0, -5.5, 6.5
O=C(C[C@H]1C[C@H]2c3cc(NC(=O)NC4CCCC4)ccc3O[C@H]2[C@H](CO)O1)NCc1cccc(F)c1
→ -0.4, -2.2, 1.9
CCc1csc(N2[C@@H](C#N)[C@@H](c3ccccc3-c3ccc(F)cc3)[C@@H]2CO)n1
→ -5.4, 2.3, -7.7
N#C[C@H]1[C@H](c2ccccc2-c2ccccc2F)[C@@H](CO)N1C(=O)C1CCOCC1
→ 6.9, -0.7, 7.6
COc1ccccc1CN(C)C[C@@H]1OCc2cnnn2CCCC(=O)N([C@H](C)CO)C[C@@H]1C
→ 0.3, -0.2, 0.5
CCNC(=O)C[C@@H]1CC[C@H]2[C@@H](COC[C@@H](O)CN2C(=O)c2ccccn2)O1
→ 6.9, 7.0, -0.1
CN(C)C(=O)c1cccc(-c2ccc(C3[C@H]4CNC[C@@H]3N4S(=O)(=O)c3ccccc3F)cc2)c1 (some centres not stated)
→ 9.9&17.2, 11.2&13.7, -1.3&3.5
CC(=O)N(C[C@H]1N[C@H](CO)[C@H]1c1ccc(-c2cccnc2)cc1)C1CCCC1
→ 1.5, -1.2, 2.7
CC=Cc1ccc2n(c1=O)C[C@@H]1N[C@H]2[C@H](C(=O)NCCc2ccccc2)[C@H]1CO (mixture of isomers)
→ -0.6, -1.1, 0.4
CCN1[C@@H]2c3ccc(-c4ccccc4F)c(=O)n3C[C@@H]2[C@@H](CO)[C@@H]1C(=O)NC1CCC1
→ 9.3, 14.3, -5.0
CN1CCN(C(=O)C[C@@H]2CC[C@@H]3[C@H](COC[C@@H](O)CN3C(=O)C3CCOCC3)O2)CC1
→ 5.5, 5.1, 0.5
C[C@H](CO)N1C[C@H](C)[C@H](CN(C)C(=O)NC2CCCCC2)Oc2c(NS(=O)(=O)c3ccc(F)cc3)cccc2C1=O
→ 2.3, 1.7, 0.6
COCC(=O)N(C)C[C@H]1[C@@H](c2ccc(-c3cccnc3)cc2)[C@H](CO)N1C(C)=O
→ 0.0, -2.9, 2.9
C[C@@H]1CN([C@@H](C)CO)C(=O)c2cc(NC(=O)Nc3ccc4c(c3)OCO4)ccc2O[C@@H](C)CCCCO[C@@H]1CN(C)C(=O)CCCN(C)C
→ -1.2, -1.9, 0.7
C[C@@H]1CCCCO[C@H](CN(C)Cc2ccc(C(=O)O)cc2)[C@@H](C)CN([C@@H](C)CO)C(=O)c2cc(N(C)C)ccc2O1
→ 1.7, -2.1, 3.9
CCCNC(=O)N1[C@H](CO)[C@@H](c2ccc(-c3cccc(OC)c3)cc2)[C@@H]1C#N
→ -0.7, 0.8, -1.5
CS(=O)(=O)N1[C@H](C#N)[C@@H](c2ccccc2)[C@H]1CO
→ 0.6, -1.1, 1.8
COc1ccc2c3c([nH]c2c1)[C@H](CO)N(CC1CC1)CC31CN(C(=O)c2ccccc2)C1
→ -24.1*, -25.6*, 1.5*
COCC(=O)N1[C@H](C#N)[C@@H](c2ccccc2)[C@@H]1CO
→ 7.4, 24.5, -17.1
COc1ccccc1CN1[C@@H]2CN(C(=O)c3cccnc3)c3ccccc3[C@@H]2[C@@H]1CO
→ -0.8, -1.1, 0.2
N#C[C@@H]1[C@@H](c2ccc(-c3cncnc3)cc2)[C@H](CO)N1C(=O)C1CCCC1
→ 1.2, 1.5, -0.3
CC(C)C#Cc1ccc([C@H]2[C@@H](C#N)N(C(=O)c3cccc(F)c3)[C@H]2CO)cc1
→ 5.6, -0.7, 6.2
COc1ccccc1-c1ccc2n(c1=O)C[C@H]1[C@H](CO)[C@@H](C(=O)N(C)C)N[C@@H]21
→ 0.5, 1.3, -0.8
O=C(C[C@@H]1CC[C@@H]2[C@H](COC[C@H](O)CN2S(=O)(=O)c2ccc(F)cc2)O1)NCc1ccncn1
→ 9.1, -4.4, 13.4
CN1C(=O)c2cc(NC(=O)Cc3cccs3)ccc2OC[C@H]2O[C@@H](CC(=O)NCc3ccc(-c4ccccc4)cc3)CC[C@H]21
→ 0.1, -0.9, 1.0
O=C(c1ccc2c(c1)OCO2)N1CC(=O)N2[C@H](CO)[C@@H](c3ccc(C#CC4CCCC4)cc3)[C@H]2C1
→ ?, /, /
CC(C)NC(=O)N1CCCCN2[C@H](CO)[C@H](c3ccc(Br)cc3)[C@@H]2C1
→ 9.1, 14.7, -5.5
C[C@H]1CN([C@@H](C)CO)C(=O)c2c(c3ccccc3n2C)-c2ccccc2CO[C@@H]1CN(C)S(=O)(=O)c1ccc(C#N)cc1
→ -0.4, 1.4, -1.8
C[C@@H]1CCCCO[C@@H](CN(C)C(=O)C2CCCCC2)[C@H](C)CN([C@H](C)CO)C(=O)c2cc(N(C)C)ccc2O1
→ -1.7, 0.5, -2.1
COc1ccccc1-c1ccc2n(c1=O)C[C@H]1[C@H](CO)[C@@H](C(=O)NC3CCC3)N(C(=O)C3CCC3)[C@@H]21
→ 4.6, 7.9, -3.4
O=C(NC[C@H]1N[C@@H](CO)[C@H]1c1ccc(-c2ccccc2F)cc1)c1ccccn1
→ -1.2, -0.5, -0.7
CCNC(=O)c1cc2c(c(-c3cccc(-c4ccncc4)c3)n1)[C@H](CCO)N(S(=O)(=O)CC)C2
→ 2.9, 4.3, -1.4
COc1ccc(NC(=O)N2C[C@@H](O)COC[C@H]3O[C@H](CC(=O)N4CCOCC4)CC[C@@H]32)cc1
→ 15.3, 3.3, 12.0
O=C(C[C@@H]1CC[C@H]2[C@@H](COC[C@H](O)CN2Cc2nccs2)O1)NCc1ccc(Cl)cc1
→ -0.6, -1.4, 0.8
O=C(c1ccc2c(c1)OCO2)N1CC(=O)N2[C@H](C1)[C@@H](c1ccc(C#CCC3CCCC3)cc1)[C@@H]2CO
→ ?, /, /
O=C(C1CCC1)N1CC[C@@H]2[C@H]1c1cc(-c3cccc(F)c3)ccc1N[C@@H]2CO
→ ?, /, /
CC(=O)N1[C@@H](CO)[C@@H](c2ccccc2)C12CN(Cc1cc(F)ccc1F)C2
→ -1.8, -0.5, -1.3

Carrying on:
Fields: DUX4 inh, DUX4 inh difference, DUX4 inh control
Cc1ccccc1-c1ccc2c(c1)O[C@H](CN(C)Cc1ccncc1)[C@@H](C)CN([C@H](C)CO)S2(=O)=O
→ 2.9, 0.3, 2.6
O=C(CC1CC1)N1CC(=O)N2[C@H](CO)[C@@H](c3ccc(-c4cccnc4)cc3)[C@H]2C1
→ 8.7, 6.7, 2.0
CC(C)OC(=O)N(C)C[C@H]1OCc2ccccc2-c2ccccc2C(=O)N([C@H](C)CO)C[C@@H]1C
→ 8.2, 9.1, -0.9
COc1ccc(S(=O)(=O)Nc2ccc3c(c2)C(=O)N([C@@H](C)CO)C[C@@H](C)[C@@H](CN(C)C(=O)Nc2c(C)noc2C)OCCCC[C@H](C)O3)cc1
→ 5.2, 6.2, -1.0
CS(=O)(=O)N1CC2(C1)[C@H](c1ccccc1)[C@@H](CO)N2Cc1ccccn1
→ 7.0, 2.2, 4.8
Cc1ccc(-c2ccc([C@@H]3[C@H](CO)N4CCCCN(Cc5ccccn5)C[C@@H]34)cc2)cc1
→ ?, /, /
COCC(=O)N1C[C@H]2[C@@H](c3ccccc31)[C@H](CO)N2C(=O)Nc1ccccc1Cl
→ 3.3, 1.2, 2.1
Cc1noc(C)c1S(=O)(=O)N(C)C[C@H]1OCc2cnnn2CCCC(=O)N([C@@H](C)CO)C[C@H]1C
→ 4.5, 6.6, -2.1
O=C(CC1CC1)N1CC2(C1)[C@H](c1ccccc1)[C@H](CO)N2Cc1cccc(F)c1
→ ?, /, /
CCS(=O)(=O)Nc1ccc2c(c1)C(=O)N(C)C[C@@H](OC)[C@H](C)CN(C(=O)C1CCC1)[C@@H](C)CO2
→ 2.4, -0.8, 3.1
C[C@@H]1CCCCO[C@@H](CN(C)CC2CCCCC2)[C@H](C)CN([C@@H](C)CO)C(=O)c2cc(NS(C)(=O)=O)ccc2O1
→ 7.3, 13.5, -6.3
C[C@@H]1CN([C@H](C)CO)C(=O)CCCn2nncc2CO[C@H]1CN(C)C(=O)C1CCCCC1
→ 3.4, -2.8, 6.2
CCCNC(=O)N1[C@H](CO)[C@@H](c2ccccc2-c2ccc(OC)cc2)[C@@H]1C#N
→ 2.2, -2.5, 4.6
OC[C@H]1[C@@H](c2ccc(C#CC3(O)CCCC3)cc2)[C@H]2CN(Cc3ccncc3)CCCCN21
→ 14.9, -7.6, 22.4
COc1cccc(-c2ccc3c(c2)O[C@@H](CN(C)C(=O)c2ccccc2F)[C@H](C)CN([C@@H](C)CO)S3(=O)=O)c1
→ -3.5, 0.3, -3.7

Some of the entries above, reformatted:
C[C@@H]1CN([C@H](C)CO)C(=O)CCCn2nncc2CO[C@H]1CN(C)C(=O)C1CCCCC1
  DUX4 inh: 3.4
  DUX4 inh difference: -2.8
  DUX4 inh control: 6.2
CCCNC(=O)N1[C@H](CO)[C@@H](c2ccccc2-c2ccc(OC)cc2)[C@@H]1C#N
  DUX4 inh: 2.2
  DUX4 inh difference: -2.5
  DUX4 inh control: 4.6
